# FGF22 binding = binders of recombinant human FGF22 by thermal shift; Q9HCT0; SYPRO orange fluorescence; percent of sucrose octasulfate shift, DMSO zero; calls only at 9.99 µM; actives 1.5% (n = 340,000); AID 651658;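 active = melting point raised past a set limit in the mean and every replicate; three in four hits are not shown here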
# Target sequence (Q9HCT0 whole entry, looked up): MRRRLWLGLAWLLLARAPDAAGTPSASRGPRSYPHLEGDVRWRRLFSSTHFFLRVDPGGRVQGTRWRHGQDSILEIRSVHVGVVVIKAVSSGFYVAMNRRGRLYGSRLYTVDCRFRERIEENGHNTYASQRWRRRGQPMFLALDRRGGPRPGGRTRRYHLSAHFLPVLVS
# Calls only; i = inactive.
# A first look:
FGF22 binding	Compound
i	COCC(=O)Nc1ccc2c(c1)[C@@H]1C[C@@H](CC(=O)OC)O[C@@H](CO)[C@@H]1O2
i	C[C@@H]1CN([C@H](C)CO)C(=O)c2cc(NS(C)(=O)=O)ccc2O[C@@H]1CN(C)S(=O)(=O)c1ccc(F)cc1
i	C[C@@H]1CCCCO[C@H](CN(C)Cc2ccc(C(F)(F)F)cc2)[C@@H](C)CN([C@@H](C)CO)C(=O)c2cc(NS(=O)(=O)c3cn(C)cn3)ccc2O1
i	COc1ccc(CN(C)C[C@H]2OCCCC[C@@H](C)Oc3ccc(NC(=O)c4ccncc4)cc3C(=O)N([C@H](C)CO)C[C@H]2C)cc1
i	COC(=O)C[C@H]1C[C@@H]2c3cc(NC(=O)NC4CCCCC4)ccc3O[C@@H]2[C@@H](CO)O1
i	C[C@H]1CN([C@@H](C)CO)C(=O)Cc2cc(NC(=O)Cc3cn(C)c4ccccc34)ccc2O[C@H]1CN(C)Cc1ccccc1
i	CCCN1C[C@H](C)[C@@H](OC)CN(C)C(=O)c2cc(NC(=O)NC3CCCCC3)ccc2OC[C@@H]1C
i	C[C@@H]1CN([C@@H](C)CO)C(=O)c2cc(NC(=O)CCN3CCOCC3)ccc2O[C@H]1CN(C)C(=O)Nc1ccc(F)cc1
i	CCNC[C@@H]1[C@H](c2ccccc2)[C@H](CO)N1C(=O)Cc1ccccn1
i	C[C@H](CO)N1C[C@H](C)[C@@H](CN(C)Cc2ccc(Oc3ccccc3)cc2)Oc2c(NC(=O)Nc3cccc4ccccc34)cccc2C1=O
i	C/C=C/c1ccc([C@@H]2[C@@H](CO)N3CCCCN(S(=O)(=O)c4ccc(F)cc4)C[C@H]23)cc1

# Results, repeating the preview:
FGF22 binding	Compound
i	COCC(=O)Nc1ccc2c(c1)[C@@H]1C[C@@H](CC(=O)OC)O[C@@H](CO)[C@@H]1O2
i	C[C@@H]1CN([C@H](C)CO)C(=O)c2cc(NS(C)(=O)=O)ccc2O[C@@H]1CN(C)S(=O)(=O)c1ccc(F)cc1
i	C[C@@H]1CCCCO[C@H](CN(C)Cc2ccc(C(F)(F)F)cc2)[C@@H](C)CN([C@@H](C)CO)C(=O)c2cc(NS(=O)(=O)c3cn(C)cn3)ccc2O1
i	COc1ccc(CN(C)C[C@H]2OCCCC[C@@H](C)Oc3ccc(NC(=O)c4ccncc4)cc3C(=O)N([C@H](C)CO)C[C@H]2C)cc1
i	COC(=O)C[C@H]1C[C@@H]2c3cc(NC(=O)NC4CCCCC4)ccc3O[C@@H]2[C@@H](CO)O1
i	C[C@H]1CN([C@@H](C)CO)C(=O)Cc2cc(NC(=O)Cc3cn(C)c4ccccc34)ccc2O[C@H]1CN(C)Cc1ccccc1
i	CCCN1C[C@H](C)[C@@H](OC)CN(C)C(=O)c2cc(NC(=O)NC3CCCCC3)ccc2OC[C@@H]1C
i	C[C@@H]1CN([C@@H](C)CO)C(=O)c2cc(NC(=O)CCN3CCOCC3)ccc2O[C@H]1CN(C)C(=O)Nc1ccc(F)cc1
i	CCNC[C@@H]1[C@H](c2ccccc2)[C@H](CO)N1C(=O)Cc1ccccn1
i	C[C@H](CO)N1C[C@H](C)[C@@H](CN(C)Cc2ccc(Oc3ccccc3)cc2)Oc2c(NC(=O)Nc3cccc4ccccc34)cccc2C1=O
i	C/C=C/c1ccc([C@@H]2[C@@H](CO)N3CCCCN(S(=O)(=O)c4ccc(F)cc4)C[C@H]23)cc1
i	COc1ccc(S(=O)(=O)N(C)C[C@H]2OCCCC[C@@H](C)Oc3ccc(NC(=O)c4ccccc4)cc3C(=O)N([C@@H](C)CO)C[C@H]2C)cc1
i	COc1cccc(C#Cc2ccc3c(c2)O[C@H](CN(C)S(=O)(=O)c2ccccc2F)[C@H](C)CN([C@@H](C)CO)S3(=O)=O)c1
i	O=C(C[C@H]1CC[C@@H](NC(=O)CN2CCOCC2)[C@H](CO)O1)NC1CCCCC1
i	O=C(Cc1ccccc1)N1C[C@@H]2[C@H](c3ccccc31)[C@@H](CO)N2C(=O)c1cccc(F)c1
i	Cc1noc(C)c1NC(=O)N1C[C@@H](O)COC[C@@H]2O[C@@H](CC(=O)N3CCc4ccccc4C3)CC[C@H]21
i	COc1ccccc1S(=O)(=O)N[C@H]1CC[C@H](CCNC(=O)C2CCCCC2)O[C@@H]1CO
i	COc1ccccc1CNc1ccc2c(c1)OC[C@H](CC(C)C)NS2(=O)=O
i	CN(C)C(=O)C[C@H]1CC[C@@H]2[C@@H](COc3ccc(NC(=O)c4ccc(F)cc4)cc3C(=O)N2C)O1
i	COC(=O)C[C@@H]1C[C@H]2c3cc(NC(=O)NC4CCCCC4)ccc3O[C@H]2[C@@H](CO)O1
i	CN(C)CC(=O)N1[C@H](C#N)[C@@H](c2ccc(-c3ccccc3F)cc2)[C@H]1CO
i	Cc1noc(C)c1NC(=O)Nc1cccc2c1O[C@H](CN(C)Cc1ccc(-c3ccccc3)cc1)[C@H](C)CN([C@H](C)CO)C2=O
i	COc1cccc(S(=O)(=O)Nc2ccc3c(c2)[C@H]2C[C@@H](CC(=O)NCCc4ccccc4)O[C@@H](CO)[C@H]2O3)c1
i	CC(C)CN(C[C@H]1[C@H](c2ccccc2)[C@@H](CO)N1C(=O)C1CCC1)C(=O)C1CC1
i	COc1ccccc1C#Cc1ccc([C@H]2[C@@H](C#N)N(C(=O)C3CCC3)[C@H]2CO)cc1
i	CCCN(C)C[C@H]1Oc2ncc(-c3cccc(C#N)c3)cc2C(=O)N([C@H](C)CO)C[C@@H]1C
i	Cc1noc(C)c1NC(=O)N(C)C[C@H]1Oc2ncc(C#CC3CCCC3)cc2C(=O)N([C@@H](C)CO)C[C@@H]1C
i	C[C@H]1CN([C@@H](C)CO)S(=O)(=O)c2ccc(-c3cccc(F)c3)cc2O[C@@H]1CN(C)S(=O)(=O)c1ccccc1
i	C[C@@H]1CCCCO[C@@H](CN(C)Cc2ccc(C(F)(F)F)cc2)[C@H](C)CN([C@@H](C)CO)C(=O)c2cc(NC(=O)c3ccccc3)ccc2O1
i	CN1CCN(C(=O)C[C@H]2CC[C@@H]3[C@H](COC[C@@H](O)CN3Cc3cccc(-c4ccncc4)c3)O2)CC1
i	O=C(CC1CC1)Nc1ccc2c(c1)[C@@H]1C[C@@H](CC(=O)NC3CCCCC3)O[C@H](CO)[C@@H]1O2
i	COc1ccc2c3c([nH]c2c1)[C@@H](CO)N(C(=O)C1CCOCC1)CC31CN(S(C)(=O)=O)C1
i	C/C=C/c1cnc2c(c1)C(=O)N([C@@H](C)CO)C[C@H](C)[C@H](CN(C)S(=O)(=O)c1ccc(OC)cc1)O2
i	CN(C)CC(=O)Nc1ccc2c(c1)[C@H]1C[C@H](CC(=O)NCc3ccccc3F)O[C@H](CO)[C@H]1O2
i	C[C@@H]1CN([C@H](C)CO)C(=O)c2cc(NC(=O)Cc3cn(C)c4ccccc34)ccc2O[C@@H]1CN(C)Cc1ccc(-c2ccccc2)cc1
i	COc1ccc(NC(=O)N(C)C[C@@H]2Oc3ccc(NC(=O)Nc4ccc(F)cc4)cc3C(=O)N([C@H](C)CO)C[C@H]2C)cc1
i	CO[C@@H]1CN(C)C(=O)c2cc(NC(C)=O)ccc2OC[C@@H](C)N(Cc2nccs2)C[C@H]1C
i	CCS(=O)(=O)NCC[C@H]1CC[C@H](NC(=O)Cc2ccccn2)[C@H](CO)O1
i	CCCc1cn(CC[C@@H]2CC[C@H](NC(=O)C3CCCCC3)[C@@H](CO)O2)nn1
i	O=C(NC1CCCCC1)N[C@H]1C=C[C@H](CC(=O)N2CCOCC2)O[C@@H]1CO
i	O=C(Nc1ccc(F)cc1)N1CC(=O)N2[C@H](CO)[C@@H](c3ccc(-c4cccc(F)c4)cc3)[C@@H]2C1
i	C[C@@H]1CN([C@@H](C)CO)S(=O)(=O)c2ccc(C#C[C@@H](C)O)cc2O[C@H]1CN(C)C
i	C[C@@H]1CN([C@@H](C)CO)S(=O)(=O)c2ccc(C3=CCCCC3)cc2O[C@H]1CN(C)Cc1ccccn1
i	C/C=C/c1ccccc1[C@H]1[C@@H](CO)N(S(=O)(=O)c2cccc(F)c2)[C@H]1C#N
i	C[C@H]1CN([C@@H](C)CO)C(=O)Cc2cc(NC(=O)Nc3ccc4c(c3)OCO4)ccc2O[C@H]1CN(C)Cc1ccc(C(F)(F)F)cc1
i	CO[C@H]1CN(C)C(=O)c2cc(NC(=O)C3CC3)ccc2OC[C@H](C)NC[C@@H]1C
i	CC(C)C#Cc1cnc2c(c1)C(=O)N([C@@H](C)CO)C[C@@H](C)[C@@H](CN(C)C(=O)Cc1ccccn1)O2
i	COc1cccc(NC(=O)N2C[C@@H](O)COC[C@H]3O[C@@H](CC(=O)NCc4ccccc4F)CC[C@@H]32)c1
i	CCC(=O)N1C[C@@H](C)[C@H](OC)CN(C)C(=O)c2cc(NC(=O)COC)ccc2OC[C@@H]1C
i	C[C@H]1CN([C@@H](C)CO)C(=O)c2cc(C#CC3(O)CCCC3)cnc2O[C@@H]1CN(C)S(=O)(=O)c1ccccc1
i	CO[C@H]1CN(C)C(=O)c2ccc(NC(=O)NC(C)C)cc2OC[C@@H](C)N(C(=O)NC(C)C)C[C@H]1C
i	CC(C)CC#Cc1ccc([C@H]2[C@H]3CN(S(=O)(=O)c4ccc(F)cc4)CCCCN3[C@H]2CO)cc1
i	COc1ccc2c3c(n(C)c2c1)[C@@H](CO)NCC31CCN(CC2CC2)CC1
i	Cc1noc(C)c1NC(=O)N(C)C[C@@H]1Oc2ccc(NC(=O)c3ccncc3)cc2CC(=O)N([C@H](C)CO)C[C@H]1C
i	CCN1[C@@H]2Cn3c(ccc(-c4cccc(F)c4)c3=O)[C@H]1[C@@H](C(=O)N(C)C)[C@@H]2CO
i	C[C@H]1CN([C@@H](C)CO)C(=O)c2cc(NC(=O)Nc3ccc(C(F)(F)F)cc3)ccc2O[C@@H]1CN(C)Cc1ccc(Oc2ccccc2)cc1
i	C[C@H](CO)N1C[C@H](C)[C@H](CN(C)C(=O)Nc2ccc3c(c2)OCO3)Oc2ncc(C#Cc3ccc(C(F)(F)F)cc3)cc2C1=O
i	CO[C@@H]1CN(C)C(=O)c2ccc(NC(C)=O)cc2OC[C@H](C)N(C(=O)c2ccccn2)C[C@H]1C
i	CN1CCN(C(=O)C[C@@H]2CC[C@H]3[C@@H](COc4ccc(NC(=O)C5CC5)cc4C(=O)N3C)O2)CC1
i	COc1cccc(-c2ccc([C@@H]3[C@H](CO)N(C(=O)C4CC4)C34CN(C(C)=O)C4)cc2)c1

# The list goes on:
FGF22 binding	Compound
i	COc1cccc(S(=O)(=O)N[C@H]2CC[C@H](CCn3cc(-c4ccccc4)nn3)O[C@@H]2CO)c1
i	O=C(C[C@H]1CC[C@H]2[C@@H](COC[C@H](O)CN2Cc2ccncc2)O1)NCC1CC1
i	O=C(CN1CCOCC1)NCC[C@H]1CC[C@@H](NS(=O)(=O)c2ccc(F)cc2)[C@H](CO)O1
i	COCC#Cc1cnc2c(c1)C(=O)N([C@@H](C)CO)C[C@@H](C)[C@@H](CN(C)C(=O)c1cnccn1)O2
i	C[C@H](CO)N1C[C@H](C)[C@H](CN(C)C(=O)NC2CCCCC2)Oc2ccc(NS(=O)(=O)c3ccc(Cl)cc3)cc2C1=O
i	C[C@@H]1CCCCO[C@H](CN(C)S(=O)(=O)c2ccccc2)[C@@H](C)CN([C@H](C)CO)C(=O)c2cc(NS(C)(=O)=O)ccc2O1
i	C[C@@H]1CN([C@@H](C)CO)C(=O)c2cccc(NC(=O)C3CC3)c2O[C@@H]1CN(C)C(=O)Nc1ccc2c(c1)OCO2
i	COc1ccc(S(=O)(=O)N(C)C[C@@H]2Oc3ccc(NC(=O)CCN4CCOCC4)cc3C(=O)N([C@H](C)CO)C[C@@H]2C)cc1
i	C[C@@H](O)C#Cc1ccc2c(c1)O[C@H](CN(C)Cc1cccnc1)[C@@H](C)CN([C@@H](C)CO)S2(=O)=O
i	C[C@@H]1CN([C@@H](C)CO)C(=O)Cc2cc(NS(=O)(=O)c3ccc(Cl)cc3)ccc2O[C@H]1CN(C)Cc1ccncc1
i	O=C(C[C@H]1CC[C@H]2[C@@H](COC[C@@H](O)CN2C(=O)Nc2ccc(Cl)cc2)O1)NCC1CC1
i	O=C(NCc1ccncc1)[C@H]1[C@H](CO)[C@H]2Cn3c(ccc(-c4cccnc4)c3=O)[C@H]2N1C(=O)C1CC1
i	C[C@H](NC(=O)C[C@H]1C=C[C@@H](NC(=O)C2CC2)[C@H](CO)O1)c1ccccc1
i	C[C@H]1CN([C@@H](C)CO)C(=O)c2cc(NC(=O)Cn3cnnn3)ccc2O[C@H]1CN(C)S(C)(=O)=O
i	CC(=O)NC[C@@H]1[C@@H](c2ccc(-c3ccccc3)cc2)[C@@H](CO)N1C(=O)C1CCC1
i	C[C@@H]1CN([C@H](C)CO)C(=O)c2cc(C#Cc3ccccn3)cnc2O[C@H]1CN(C)C(=O)c1ccccn1
i	COCC#Cc1ccc([C@H]2[C@H](CO)N3CCCCN(C(=O)COC)C[C@@H]23)cc1
i	Cc1noc(C)c1NC(=O)Nc1cccc2c1O[C@H](CN(C)S(C)(=O)=O)[C@@H](C)CN([C@@H](C)CO)C2=O
i	C[C@H](CO)N1C[C@H](C)[C@@H](CN(C)S(=O)(=O)c2ccc(Cl)cc2)Oc2c(NC(=O)Nc3ccc(F)cc3)cccc2C1=O
i	COCC(=O)N1CC[C@@H]2[C@@H](CO)N(C)c3ccc(-c4cccc(F)c4)cc3[C@@H]21
i	CC(C)c1cn(CC[C@H]2CC[C@@H](NS(=O)(=O)c3ccc(F)cc3)[C@H](CO)O2)nn1
i	C[C@H]1CN([C@@H](C)CO)S(=O)(=O)c2ccc(-c3cccc(C#N)c3)cc2O[C@H]1CN(C)C
i	C[C@H]1CN([C@@H](C)CO)C(=O)Cc2cc(NC(=O)Nc3ccc(C(F)(F)F)cc3)ccc2O[C@H]1CN(C)Cc1ccc2c(c1)OCO2
i	Cc1cccc(-c2ccc(C3[C@H]4CNC[C@@H]3N4C(=O)Nc3ccc(F)cc3)cc2)c1 (stereo partly drawn)
i	C[C@@H]1CN([C@@H](C)CO)S(=O)(=O)c2ccc(-c3ccncc3)cc2O[C@H]1CN(C)S(C)(=O)=O

# Assay outcomes deposited in PubChem BioAssay by Broad Institute.

# A portion of the library, so the mix of outcomes need not match the whole.
